TRPML1 agonist – activates the human TRPML1 channel; AID 624414; Q9GZU1; activation, % (test concentration not listed); TRPML1-expressing cells, Ca2+ dye fluorescence, FDSS; host cell line not named in the record; reference of the full effect not given here; 410,000 tested, 0.12% active; in the data active = activation above about 50%; inconclusive = about 30% to 50%; inactive = below about 30%; note: 0% is about no effect; the text of the record puts the active cut at 80%
Target sequence (Q9GZU1 whole entry, looked up): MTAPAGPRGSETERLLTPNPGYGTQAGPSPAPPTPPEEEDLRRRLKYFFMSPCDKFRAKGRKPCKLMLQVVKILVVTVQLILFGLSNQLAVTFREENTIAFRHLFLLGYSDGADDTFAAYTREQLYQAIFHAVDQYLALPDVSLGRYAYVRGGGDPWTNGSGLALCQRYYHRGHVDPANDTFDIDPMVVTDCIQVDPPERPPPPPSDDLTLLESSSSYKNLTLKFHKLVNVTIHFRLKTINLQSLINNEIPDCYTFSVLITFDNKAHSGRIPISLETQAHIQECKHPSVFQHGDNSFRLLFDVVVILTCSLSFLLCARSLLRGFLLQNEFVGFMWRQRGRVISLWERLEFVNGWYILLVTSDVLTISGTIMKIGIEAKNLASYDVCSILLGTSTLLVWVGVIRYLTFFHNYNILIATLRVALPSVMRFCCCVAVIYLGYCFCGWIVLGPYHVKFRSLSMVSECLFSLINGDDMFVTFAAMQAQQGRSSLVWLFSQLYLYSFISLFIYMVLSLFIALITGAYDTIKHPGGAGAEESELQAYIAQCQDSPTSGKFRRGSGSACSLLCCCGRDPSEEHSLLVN
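Kinetic FDSS Ca2+ read in Tet-induced TRPML1-DL cells (ABD Ca8 dye plus quencher, 45-90 min RT loading): baseline, then compound, then 110 s agonist window; EC80 agonist 54-4 at 4uM final added afterwards for a 110 s antagonist window.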
Six1-Eya2 blk – blocks human Six1 binding to Eya2; AlphaScreen GST-Six1/His-Eya2 binding, biochemical; stronger effect = lower value; control for the full effect not named in the record; activity change, % (concentration not given with the values); Q15475+O00167; 360,000 tested, 0.56% active; AID 651725; in the data active = activity change below about -65%; inconclusive = about -30% to -65%; inactive = above about -30%; note: % is set by controls: 0 for no effect and ±100 for the full control effect
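Six1/Eya2 binding was read as AlphaScreen signal after compounds were pinned into GST-Six1 plus His-tagged Eya2 (5X stock 250/500 nM) in pH 8.0 Tris/NaCl/TCEP buffer, beads added, then incubated 1 h, 37 C, dark.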
D2 agonist – activates the human D2 dopamine receptor; DiscoveRx PathHunter D2 beta-arrestin, luminescence, 90 min; 100% = 57 uM dopamine signal; activation, % (concentration not given with the values); 360,000 tested, 0.084% active; AID 624465; in the data active = activation above about 40%; inconclusive = about 15% to 40%; inactive = below about 15%; note: compound concentration not given in the record; the text of the record calls up to 30% inactive
Target sequence (P14416 whole entry, looked up): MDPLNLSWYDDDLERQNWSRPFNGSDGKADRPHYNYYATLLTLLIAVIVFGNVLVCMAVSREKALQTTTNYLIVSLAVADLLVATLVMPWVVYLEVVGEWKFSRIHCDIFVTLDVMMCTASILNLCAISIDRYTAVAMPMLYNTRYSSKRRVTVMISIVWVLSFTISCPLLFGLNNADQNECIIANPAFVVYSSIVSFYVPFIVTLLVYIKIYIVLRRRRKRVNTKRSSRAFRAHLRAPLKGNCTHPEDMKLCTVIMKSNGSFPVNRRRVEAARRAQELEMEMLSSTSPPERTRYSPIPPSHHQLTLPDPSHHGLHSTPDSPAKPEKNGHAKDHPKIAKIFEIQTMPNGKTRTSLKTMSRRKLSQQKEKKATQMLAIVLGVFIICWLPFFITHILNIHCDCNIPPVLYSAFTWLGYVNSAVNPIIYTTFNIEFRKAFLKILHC
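Agonist mode: compounds alone added to overnight-plated D2 PathHunter cells for 90 min at 37 C, with 57 uM final dopamine (EC100) defining full response. Beta-arrestin recruitment detected by chemiluminescent reagent, read after 1 h at ambient temperature.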
TRPML1 inh – inhibitors of human TRPML1 channel | activity change, negative = inhibition, % (test concentration not listed) | TRPML1-inducible cells, Ca2+ dye fluorescence, FDSS; stronger effect = lower value; inhibition of EC80 agonist-evoked calcium signal | Q9GZU1 | AID 624415 | 390,000 tested, 0.02% active; in the data active means activity change below about -50%; inconclusive means about -30% to -50%; inactive means above about -30%;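 note: stimulus is agonist 54-4 at its EC80 concentration; % is set by controls: 0 for no effect and ±100 for the full control effect; compound concentration not given in the record; the text of the record puts the active cut at -80%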
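TRPML1-DL cells, Tet-induced overnight (~16 h, 37 °C) at 1,500 cells/well, were loaded with Ca8 no-wash dye plus quencher for 45-90 min at room temperature. Compounds were pinned during FDSS kinetic reading; agonist 54-4 at EC80 (4 uM final) then added.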
PINK1 modulator – changes PINK1 expression; AID 624263; 410,000 tested, 0.2% active; Potency, µM (titrated, usually from 76.6 µM), without a hit: at the top dose activation (PINK1 increase), most hits filed as activators; PINK1 immunofluorescence, high-content cytometry, 24 h; active = well fitted activation curve with a large enough effect; inconclusive = small, poorly fitted or top-dose-only effect; inactive = flat fitted curve, though single readings scatter; cell line not stated here;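 note: potency is the fitted concentration of half-maximal effect; % of control where 0% means no effect; nearly all actives have a fitted effect of over 65% in size; a mitochondrial uncoupler was the plate control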
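Compound titrations (5 concentrations, 24 h) on a stable cell line; DMSO and CCCP controls. Endpoint: fixed-cell PINK1 immunofluorescence with mitochondrial, cell and nuclear markers, scanned by microplate cytometer.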
CtBP-E1A blk – CtBP/E1A binding inhibition; 340,000 tested, 0.49% active; activity change, % (concentration not given with the values); AlphaScreen GST-E1A/His-CtBP binding, 1536-well; stronger effect = lower value; control for the full effect not named in the record; in the data active means activity change below about -65%; inconclusive means about -30% to -65%; inactive means above about -30%; note: % is set by controls: 0 for no effect and ±100 for the full control effect
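Protein mix (5X: 125 nM each GST-E1A, His-CtBP) was incubated with pinned compound 2 h at 37 deg C in dark, in 50 mM Tris pH 8.0 buffer with 300 mM NaCl. Glutathione donor and nickel acceptor beads followed; AlphaScreen signal read after 1 h.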
Numbers without * were called inactive; ? = inconclusive; / = not tested or not shown; & = joins results of further samples; [ ] = another dose, or the depositor's remark.

Molecule	TRPML1 agonist	Six1-Eya2 blk	D2 agonist	TRPML1 inh	PINK1 modulator	CtBP-E1A blk
Cc1ccc(N2C(=O)CC(N3CCSCC3)C2=O)c(C)c1 (stereo not drawn)	1.4	6	-3.6	16	0.9%	4
N#C/C(=C\c1cccn1-c1ccccc1)C(=O)NC1CCCCC1	2.0	-25	-1.3	43	13%	-22
CC(C)CN1CCC(=O)N(CCN=[N+]=[N-])CC1	-0.8&-0.3	6	0.4	14	0.8%	4
CCOc1cc(CNn2cn[nH]c2=S)cc(Cl)c1OCc1ccccc1F	4.8	-2	-2.0	1	2.1%	2
CCOc1ccc2oc(C(=O)N(CC)CC(=O)Nc3ccc(NC(C)=O)cc3)c(C)c2c1	0.1	-3	-0.3	12	6.5%	-9
C=CCNC(=O)Nc1ccc(Cl)cn1	0.9	-2	-0.4	-7	1.0%	-4
CCOc1cc(N2CCOCC2)c(OCC)cc1NC(=O)C(C)(C)C	-0.6	-8	-2.0	-2	2.0%	-2
CCC(C(=O)N1CCN(Cc2ccc3c(c2)OCO3)CC1)n1nnc2ccccc2c1=O (stereo not drawn)	0.1	1	-1.2	2	-1.3%	2
C=C1C(=O)[C@]23C[C@H]1CCC2[C@]1(C)CCC[C@@](C)(C(=O)O)C1C[C@@H]3O (stereo partly drawn)	3.0	-22	-7.4	-11	0.1%	-3
CC1CCN(C(=O)Cn2cc(SCC(=O)Nc3ccccc3)c3ccccc32)CC1	1.1	/	/	-15	3.0%	/
CCCC(=O)Nc1ccc(C=C(C(C)=O)C(C)=O)cc1	-0.1	-4	-3.7	25	-0.7%	11
O=C(Cn1cnc2ccccc21)Nc1cc(C(F)(F)F)ccc1N1CCOCC1	-0.7	5	-1.1	14	0.0%	4
COc1ccc(-c2nc3c(C)cc(Br)cn3c2Cc2cccc(Cl)c2)cc1OC	0.3	6	-6.8	/	2.0%	-7
O=C(CN1C(=O)NC2(CCCCCC2)C1=O)N1CCN(c2ccccc2)CC1	-0.4	5	9.5	10	-0.7%	8
CCCCNC(=O)N(C)c1nncnc1C(=O)NC	4.3	1	-0.8	-10	1.6%	-2
O=C(C1CCCCC1)N1CCN=C1SCc1cccnc1	0.1	0	-0.7	22	2.4%	5
O=Nc1ccc(NOC(=O)c2ccccc2Br)cc1	1.4	12	6.1	17	-0.7%	-2
Cc1ccccc1NC(=O)C(=O)N/N=C/c1cccc(Br)c1	1.0	8	1.6	30	21%	6
COc1ccc(OCc2cc(C(=O)N3CCCC3)no2)c2ccccc12	1.4	-18	12	1	0.6%	-8
CCO[C@@H]1OC(C(=O)NCc2nc3ccccc3[nH]2)=C[C@H](c2coc3ccccc3c2=O)[C@H]1CCCO	0.2	6	2.1	6	2.0%	2

Reprinted at random: 2 records from the list, in no set order.
Molecule	TRPML1 agonist	Six1-Eya2 blk	D2 agonist	TRPML1 inh	PINK1 modulator	CtBP-E1A blk
CCO[C@@H]1OC(C(=O)NCc2nc3ccccc3[nH]2)=C[C@H](c2coc3ccccc3c2=O)[C@H]1CCCO	0.2	6	2.1	6	2.0%	2
CCCC(=O)Nc1ccc(C=C(C(C)=O)C(C)=O)cc1	-0.1	-4	-3.7	25	-0.7%	11

The list continues.
Molecule	TRPML1 agonist	Six1-Eya2 blk	D2 agonist	TRPML1 inh	PINK1 modulator	CtBP-E1A blk
CCOc1ccc(N2C(=O)CSC23CCCCC3)cc1	-1.1	-6	-1.9	3	-1.8%	8
COCC1CCN(C(=O)c2cc(COc3cncc(Cl)c3)on2)C1 (stereo not drawn)	-0.6	7	-1.3	-6	2.1%	0
O=C(NCC1CC1)c1ccc2c3n(nc2c1)-c1ccc(Cl)cc1CO3	0.5	-9	0.0	-2	2.0%	/
O=C(O)C1CC(O)CN1C(=O)c1ccco1 (stereo not drawn)	-0.7	-3	-3.2	7	0.8%	15
COc1ccc(CCNC(=O)Cc2cc(OCc3ccccc3)c(OC)cc2[N+](=O)[O-])cc1OC	2.5	-3	-3.1	8	-1.9%	-14
CCC(=O)N1CCc2cc(Br)cc(S(=O)(=O)CCC(=O)N3CCN(c4ccccc4F)CC3)c21	-1.1	/	/	-11	-1.5%	/
COc1ccc(C(=O)Nc2nccs2)cc1[N+](=O)[O-]	-0.7	-8	-0.5	-13	0.8%	/
O=c1oc2ccccc2c2c1C(c1ccc(Cl)cc1)Nc1ccc3ccccc3c1-2 (stereo not drawn)	-0.2	-2	-0.5	13	7.8%	6
Cc1ccc(NC(=O)c2ccc(-c3nn(C)c(=O)c4ccccc34)cc2)cc1	0.0	-2	1.1	-8	2.5%	2
CCN1CCCC1CN(Cc1cc2ccc(C)c(C)c2[nH]c1=O)C(=O)Nc1ccccc1OC (stereo not drawn)	-0.1	12	-0.2	9	0.3%	18
CCOC(=O)c1c(C)[nH]c(CCC(=O)Nc2ccc(OC)c(OC)c2)c1C	2.7	/	/	9	2.5%	/
Cc1cc(=O)oc2ccc(OCc3ccccc3)cc12	1.8	4	-4.3	-5	0.2%	-5
Cc1ccc2cccc([N+](=O)[O-])c2n1	-0.5	-20	-3.0	-14	2.5%	-11
C#CCN(CC(=O)OCC)S(=O)(=O)CCNC1CC1	-0.1	3	0.3	/	2.0%	6
O=C(O)COc1ccc(S(=O)(=O)c2ccc(OCC(=O)O)cc2)cc1	-0.5	2	-0.6	2	/	8
CCOc1ccc(N2C(=O)CC(Sc3ccccc3C(=O)O)C2=O)c([N+](=O)[O-])c1 (stereo not drawn)	-0.4	-12	-5.2	34	1.9%	0
CCN(CC)S(=O)(=O)c1ccc(OC)c(NC(=O)COc2ccc3c(C)cc(=O)oc3c2)c1	-0.7	1	-2.1	-12	8.1%	-12
COc1cc(/C=N/NC(=O)C2CCN(CC(O)COCc3ccccc3)CC2)ccc1O (stereo not drawn)	0.1	-1	-3.5	7	-0.5%	/
CCC1CCCCN1S(=O)(=O)c1ccc(S(=O)(=O)N(Cc2cccs2)C2CC2)cc1 (stereo not drawn)	0.0	6	-0.6	36	-1.3%[38.3 µM]	22
O=C1CC(c2ccc(S(=O)(=O)NC3CC3)cc2)CN1 (stereo not drawn)	1.1	8	-2.5	12	-1.1%	-1
CCC1CN(C(=O)N2CCC(C(=O)NCCC3=CCCCC3)CC2)c2ccccc2O1 (stereo not drawn)	4.8	/	/	28	0.9%	/
Cc1ccccc1C(=O)Nc1nnc(SC(C)C)s1	1.4	6	1.1	1	1.3%	-19
COc1cc2c(cc1NC(=O)C(C)OC(=O)/C=C/c1ccc(OC(F)F)cc1)oc1ccccc12 (stereo not drawn)	0.1	10	2.2	20	1.4%	-15
Cc1nc2ncnn2c(N2CCN(C(c3ccccc3)c3ccccc3)CC2)c1C	1.0	-9	-3.6	13	-4.4%[38.3 µM]	0
CN1CCN(NC(=O)Nc2ccc(Br)cc2)CC1	0.5	-8	0.4	-3	-0.8%	0
CCOc1ccc(N(CC(=O)Nc2ccc(CC)cc2)S(=O)(=O)c2c(C)[nH]c(=O)[nH]c2=O)cc1	0.1	-10	2.4	8	1.1%	/
CC(C)n1c(=O)nc(-c2ccccc2)c2cc3c(cc21)OCO3	-1.0	4	-4.6	0	-1.2%	-4
CCCCNC(=S)NNC(=O)c1cc(-c2ccncc2)nc2ccccc12	0.9	-1	-5.5	-24	4.0%	-6
O=[N+]([O-])c1cccc(CP(=O)(c2ccccc2)c2ccccc2)c1	-0.8	4	3.9	14	6.1%	4
CCOC(=O)c1cnc2ccc(C(=O)OC)cc2c1Nc1ccc(N2CCOCC2)cc1	1.3	/	/	-18	-2.2%	/
O=C(CCN1C(=O)c2ccccc2S1(=O)=O)Nc1cccc(F)c1	-0.5	-2	-3.9	-6	5.5%	7
Cc1ccc(NC(=O)c2ccsc2)cc1NS(C)(=O)=O	-1.3	-2	4.7	5	-1.8%	9
O=C(O)CCSc1ncnc2sc(-c3ccccc3)cc12	-1.1	-13	-0.8	-6	2.1%	-2
CCOc1cc(CNc2ccccc2)cc(Br)c1OCc1ccccc1F	0.9	3	0.6	-10	1.8%	19
COC(=O)[C@H](C)NC(=O)Nc1ccccc1F	1.4	4	1.8	-6	0.5%[38.3 µM]	3
COc1ccc(-c2ccc(-c3cc(=O)oc4cc(OC)c(OC)c(OC)c34)cc2)cc1OC	2.1	0	1.3	-12	1.7%	2
O=C(c1ccc(CS(=O)c2ccccc2Cl)o1)N1CCCCCC1 (stereo not drawn)	0.4	0	-8.4	23	-2.0%	5
O=C(CN1C(=O)C2CC=CCC2C1=O)Nc1ccc(S(=O)(=O)Nc2nccs2)cc1 (stereo not drawn)	-0.4	3	-3.6	-18	1.2%	/
CC1CCc2c(sc(NC(=O)c3ccc(Cn4cc([N+](=O)[O-])cn4)o3)c2C#N)C1 (stereo not drawn)	-0.2	-28	-4.2	8	-1.0%	-12
Cc1c(CCC(=O)NCCc2ccc(Cl)cc2)c(=O)oc2c(C)c(O)ccc12	-1.0	/	/	11	5.1%	/
CC(C)C(=O)Nc1cc2c(cc1C(=O)c1ccccc1)OCCO2	0.5	-11	-3.9	15	0.3%	-7
CCOc1cc(C(=S)N2CCCC2)ccc1OC	-1.2	3	-0.9	-4	-1.9%	14
CCN(CC)C(=O)C1CCCN(Cc2ccc(F)c(F)c2)C1 (stereo not drawn)	0.0	1	-0.8	29	5.5%[38.3 µM]	5
COc1ccccc1CNc1ccc(N2CCCCC2)cc1	-0.6	?	4.2	-12	4.3%[38.3 µM]	?
CCOC(=O)C1=C(C)NC(C)=C(C(=O)OCC)C1C(=O)OCC(=O)NCCc1ccccc1	1.0	-1	-3.1	17	1.3%	0
CCN(CC)CCN(C(=O)c1ccc(S(=O)(=O)N2CCCCC2)cc1)c1nc2cc3c(cc2s1)OCO3	-0.1	-11	-2.2	3	4.8%	-5
CN(C)C(=O)c1cccc(-c2cnc3sc(NCc4ccc5c(c4)OCO5)nn23)c1	0.6	?	3.3	-6	-1.2%	?
CCOC(=O)c1sc2cc([N+](=O)[O-])cc(SCCO)c2c1N	2.6	-14	9.6	-16	2.9%	-9
CCOc1ccc(NC(=O)CSc2nnc(-c3ccc(OCC)cc3)o2)cc1	-0.8	/	/	-20	-0.5%	/
Cc1ccc(-c2nn(Cc3ccccc3)cc2C(=O)NCC2CCCO2)cc1 (stereo not drawn)	0.7	4	-3.1	-16	-5.7%	0
CCOC(=O)c1c(NC(=O)Cn2cnc([N+](=O)[O-])n2)sc2c1CCCC2	-0.6	2	3.8	23	11%	-8
NC(=O)[C@@H]1CCCCNc2c(F)cc([N+](=O)[O-])cc2C(=O)N[C@@H](CC(=O)O)C(=O)NCC(=O)N1	-0.2	8	-1.1	41	-0.3%	3
O=C(Cc1coc2ccc3ccccc3c12)N1CCc2ccccc21	0.1	0	-0.3	-4	/	-1

Source: PubChem (National Center for Advancing Translational Sciences (NCATS))

Random draw from the library; about 1% have a hit in one of these screens.
